Screening results deposited in PubChem by ICCB-Longwood Screening Facility, Harvard Medical School.
AID504770: E. coli YBA685 growth inhibition, screen for V. cholerae RctB inhibitors; E. coli YBA685 rctB-dependent plasmid, OD600 growth, 3 h; hits give low values; 130,000 tested, 0.27% active; z-score (test concentration not listed);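 active = z-score under -2 on both plates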;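 also: wells of about 30 µL received 100 nL stock; score is relative to mean and SD of the test wells; the first replicate is given; strong numbers were not always called active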
CapD inh: inhibitors of Bacillus anthracis CapD enzyme; purified CapD enzyme, fluorescence intensity read-out; hits give low values; some hits fall short of the stated cut; z-score (concentration not given with the values); 140,000 tested, 0.23% active;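 active = z-score under -4 in either of two replicates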;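 also: stock transfer was 100 nL into about 40 µL; score is relative to mean and spread of the plate; one replicate is shown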
The depositor's hits bear a star; . = not tested or not shown.

Every second line gives: AID504770 | CapD inh
COc1ccc(CNc2nc(SC)n[nH]2)cc1OC
  0 | 0.7
COCCNC(=O)c1ccc(-c2ccccc2)s1
  0.2 | 87
CCOC(=O)c1c2n(c3ccc(O)cc13)CCCCC2
  0.75 | 1
COc1ccc(-c2csc(=Nc3ccccc3)n2N2CCOCC2)cc1
  -0.9 | .
O=C(Nc1ccccc1)NC1CCCC1
  . | 0.56
Cc1ccc(NC(=O)CSc2nc3ccccc3nc2Cc2cccc([N+](=O)[O-])c2)c(C)c1
  . | 0.49
O=C1CCc2ccccc2CN1
  -0.7 | 0.13
COC(=O)c1cc([N+](=O)[O-])ccc1Sc1ccccc1
  . | -1.1
COC(=O)C12C3CC4C5C(C(=NNC(N)=S)C41)C2C53 (configuration not stated)
  -0.45 | .
O=C(CCC1N=C2c3ccccc3N=C(SCc3ccc(F)cc3)N2C1=O)NCc1ccco1 (configuration not stated)
  -0.95 | 33
CC(=O)N1N=C(c2cccnc2)OC1c1ccc(C(C)C)cc1 (configuration not stated)
  . | 7.5
COc1ccc2c(c1)C1CC(C)(NC(=O)C1C(=O)c1ccccc1)O2 (configuration not stated)
  -0.1 | 0.05
COc1ccc(/C=c2\sc3n(c2=O)C(N)=C(C#N)C(c2ccc(OC)c(OC)c2)C=3C#N)cc1OC (configuration not stated)
  . | -0.68
Cc1n[nH]c(C)c1N1C(=O)c2cccc3c(N4CCCCC4)ccc(c23)C1=O
  -0.85 | .
Cc1c(C(=O)O)sc2ncnc(N3CCc4ccccc4C3)c12
  . | 0.12
CCCCC(=O)N1C2=C(C(=O)c3ccccc32)C(c2ccc(Cl)cc2)c2c1n(C)c(=O)n(C)c2=O (configuration not stated)
  . | -0.32
COc1cc(C2CC(=O)NC(SCC(=O)OCc3ccccc3)=C2C#N)ccc1O (configuration not stated)
  . | -0.43
CC(NC(=O)CSc1nn(-c2ccccc2)c(=S)s1)c1ccccc1 (configuration not stated)
  -1.1 | -0.14
CCN1C(=O)c2cccc3c(S(=O)(=O)NC4CCCC4)ccc1c23
  1.1 | 0.39
CC(C)(C)NC(=O)CCSc1ccccc1
  -1.1 | 0.16

Further results follow.
Every second line gives: AID504770 | CapD inh
CC(C(=O)N1CCc2ccccc21)n1nc(-c2ccccc2)ccc1=O (configuration not stated)
  -0.95 | 0.21
C#CC(C)OC(=O)Nc1cnccc1C(F)(F)F (configuration not stated)
  1.5 | -0.41
C/C(=C/C(=O)N1CCN(C)CC1)C(=O)O
  0.25 | 0.075
CCCCCC(C)N (configuration not stated)
  -0.3 | 0.15
CCCCN(c1ccccc1C(=O)O)S(=O)(=O)c1ccc(OC)cc1
  0 | 0.41
Cn1nc(CSc2ccc(Cl)cc2)c(CO)c1Cl
  0.45 | -0.15
COc1cc(/C=C2\C(=O)NC(=O)N(c3ccc(Br)cc3)C2=O)c([N+](=O)[O-])cc1OC
  . | 1.7
COc1ccc(C2CC(c3cccs3)=NN2C(=O)COC(=O)Cn2cnnn2)cc1OC (configuration not stated)
  0.55 | .
O=C(NC(=S)NC1CC1)c1ccco1
  1.8 | .
CCCN(CCC)C(=O)c1c[nH]c2ccc(S(=O)(=O)N(C)c3ccccc3OCC)cc2c1=O
  0.3 | 0.16
COc1cc(CNc2nc3ccccc3[nH]2)cc(OC)c1OC
  -0.4 | 0.82
O=C(O)c1ccccc1SC(C(=O)O)c1ccccc1 (configuration not stated)
  0.05 | 0.28
OC(CNCc1ccc(Cl)cc1Cl)C(F)(F)F (configuration not stated)
  0.65 | -0.005
COc1ccc(-c2cc(C(F)(F)F)n3nc(C(=O)NCCc4c[nH]c5ccccc45)cc3n2)cc1OC
  . | -0.01
CCCCOc1ccc(C2=N/C(=C\c3cc(OC)c(OC)cc3OC)C(=O)O2)cc1
  . | 0.07
CCOC(=O)c1ccccc1OCc1cc(C2Nc3ccccc3C(=O)N2c2ccccc2)ccc1OC (configuration not stated)
  . | 27
O=C(O)COCC(=O)Nc1ccccc1C(F)(F)F
  -1.2 | 0.78
Cc1cc(C)nc(NS(=O)(=O)c2ccc(NC(=O)c3cc(S(=O)(=O)N4CCOCC4)ccc3C)cc2)n1
  -0.45 | .
COc1ccc(CN(Cc2cccs2)C(=O)Cc2c(C)noc2C)cc1OC
  0.05 | .
O=c1c2sc(=S)n(CCc3ccccc3)c2nc(SCc2cc(=O)n3cc(Cl)ccc3n2)n1Cc1ccco1
  . | 0.91

Sorted by count of non-hydrogen atoms (low to high): 3 of the compounds above
Every second line gives: AID504770 | CapD inh
Cn1nc(CSc2ccc(Cl)cc2)c(CO)c1Cl
  0.45 | -0.15
COc1cc(/C=C2\C(=O)NC(=O)N(c3ccc(Br)cc3)C2=O)c([N+](=O)[O-])cc1OC
  . | 1.7
COc1ccc(-c2cc(C(F)(F)F)n3nc(C(=O)NCCc4c[nH]c5ccccc45)cc3n2)cc1OC
  . | -0.01

The list continues:
Every second line gives: AID504770 | CapD inh
Cc1ccc(S(=O)(=O)N2CCN(c3ccc([N+](=O)[O-])cn3)CC2)cc1
  . | -0.14
Cc1c(C(=O)NCc2ccccc2Br)oc2ccccc12
  -0.25 | 0.53
CCc1ccc(C(=O)NCCOC)s1
  -1.8 | 0.21
CCOC(=O)c1cnc2cc(C(F)(F)F)ccc2c1N1CCN(c2ccc(OC)cc2)CC1
  -0.4 | 0.84
Cc1cccn2cc(-c3ccc(S(=O)(=O)N4CCOCC4)cc3)nc12
  . | 22
CC(O)CNCC(=O)Nc1ccccc1Br (configuration not stated)
  -0.35 | .
CCOC(=O)c1c(C)oc(C)c1S(=O)(=O)Nc1ccccc1
  0.1 | 0.24
CC(=O)Nc1ccc(S(=O)(=O)NC(=O)CC(C)C)cc1
  0 | .
O=C(Cc1noc2ccccc12)NCCc1ccc(Cl)cc1
  -0.35 | -1.8
CCOc1cc(/C=C2\C(=O)N(c3ccc([N+](=O)[O-])cc3)N=C2c2ccccc2)ccc1OC
  . | 0.3
O=C(CSc1nc2[nH]ncc2c(=O)n1-c1cccc2ccccc12)NCc1cccc(Cl)c1
  . | 0.57
CCC(=O)OC1(c2ccccc2)CCN(C)CC1CC (configuration not stated)
  . | 6
O=C(COC(=O)Cn1[nH]c(=O)c2ccccc2c1=O)Nc1ccccc1C(=O)NC1CC1
  2.4 | .
CCC(Oc1cccc(C)c1)c1nc2ccccc2[nH]1 (configuration not stated)
  -0.15 | -0.025
COc1ccc(Nc2c(-c3ccc(C)o3)nc3ncccn23)cc1OC
  -0.55 | -1.9
N#Cc1c(Cl)cccc1N1CCC(C(N)=O)CC1
  0.45 | 22
Cc1c(C(=O)Nc2c(F)cccc2F)sc2ncnc(N3CCCCC3)c12
  . | 0.97
CCSCCOC(=O)C1=C(C)NC2=C(C(=O)CC(c3ccccc3)C2)C1c1ccc(OC(C)=O)c(OC)c1 (configuration not stated)
  . | 18
C=CCn1c(Sc2ccc(S(=O)(=O)N(CC)c3ccccc3)cn2)nnc1C1CCCCC1
  -0.1 | .
Cc1ccc2oc(C(=O)N(C)c3ccccc3)c(C)c2c1
  -0.2 | -0.42

Carrying on:
Every second line gives: AID504770 | CapD inh
c1ccc(-c2csc3ncnc(N4CCOCC4)c23)cc1
  -0.7 | 0.76
CCOC(=O)c1cc2c(N)c(C(=O)OCC)sc2nc1C
  0.2 | 0.43
COc1ccc(-c2cc(CNc3nc(C)c(C(C)=O)cc3C#N)on2)cc1
  . | 0.39
CCOC(=O)c1c(NC(=O)c2cc3cc(OC)ccc3oc2=O)sc(C(C)=O)c1C
  . | 0.66
CN1CCCN(C(c2ccccc2)c2ccc(Cl)cc2)CC1 (configuration not stated)
  . | -0.005
Cc1csc(=O)n1CC(=O)OCC(=O)NC1CCCCCCC1
  -0.15 | .
COc1ccc(Br)cc1C1C(N2C(=O)c3cccc([N+](=O)[O-])c3C2=O)C(=O)N1c1cc(Cl)ccc1C (configuration not stated)
  . | 0.02
COc1ccc(S(=O)(=O)N2CCc3ccc(NC(=O)Nc4ccc(Cl)cc4)cc32)cc1
  . | -0.53
CCc1nc2ccc(C(=O)O)cc2nc1CC
  -0.65 | .
O=C1NC(=Nc2ccccc2)S/C1=C/c1cc2c(cc1[N+](=O)[O-])OCO2
  . | 0.07
CC(=O)Nc1ccccc1C(=O)N1CCCCC1
  0.9 | 0.86
N#Cc1ccccc1Cn1c(=O)n(CCCCC(=O)NCc2ccco2)c(=O)c2ccccc21
  -0.05 | 0.43
C=CCn1cc([N+](=O)[O-])nc1C
  . | -1.1
Cc1ccc(N2C(=O)c3ccc(C(=O)O)cc3C2=O)cc1
  0.25 | .
Cc1nn(-c2ccccc2)c(C)c1CN(C)C(=O)CCCn1c(=O)oc2ccccc21
  -0.1 | .
N#Cc1cnc(Nc2nc3ccccc3s2)nc1-c1ccccc1
  0.15 | 0.33
CCNc1nc(NCC)n2c(SCC(=O)c3cccs3)nnc2n1
  -0.25 | -0.65
CC1CCCC(C)N1C(=O)CSc1ccccc1 (configuration not stated)
  -1.3 | -0.28
OC(CN1CCCC1)Cn1c2ccc(Br)cc2c2cc(Br)ccc21 (configuration not stated)
  . | -0.055
COC(=O)c1ccc(COc2ccccc2C(=O)c2cnn(-c3ccccc3)c2)o1
  0.55 | .

Next compounds
Every second line gives: AID504770 | CapD inh
O=C1CC(c2ccccc2)S(=O)(=O)c2ccccc2N1 (configuration not stated)
  -0.1 | -0.96
Cc1cccc(OCc2ccc(C(=O)NCCCN3CCOCC3)cc2)c1
  -0.65 | -0.12
CC(C)N(C(=O)Cn1nnc2ccccc21)c1ccccc1
  -0.85 | 0.59
N#CCCN(CC1CCCO1)S(=O)(=O)c1cccc2nsnc12 (configuration not stated)
  -0.45 | -0.085
NNC(=O)COc1cccc(Oc2ccccc2)c1
  -0.8 | 0.3
O=C(O)c1ccc(NC(CC(=O)c2ccc(Cl)cc2)c2ccccc2)cc1 (configuration not stated)
  -0.25 | -0.11
CC(C#N)(NC(=O)COc1ccccc1Br)C1CC1 (configuration not stated)
  1.5 | .
CCOC(=O)C1=C(c2ccc(Cl)cc2)Sc2nnc(C(F)(F)F)n2N=C1N
  2.2 | 0.34
CCC1(CC)C(C)=[N+](C)c2ccccc21
  -0.05 | 1.9
CC1(C)Cc2ccccc2-c2nc(NCCCO)n(-c3ccccc3)c(=O)c21
  2.5 | 41
Cc1ccccc1Cn1c(C)c(CNC2CCCC2)c(C(=O)O)c1C
  -0.7 | -0.2
Nc1ccccc1Sc1ccc(-c2cnc3ccccc3n2)cc1[N+](=O)[O-]
  . | -0.23
NS(=O)(=O)c1ccc(NC(=O)COC(=O)c2cccc(Cl)c2)cc1
  -1.2 | .
CCN(CC)c1nc(C)nc2sc(C(=O)Nc3cc(C)ccc3OC)c(C)c12
  . | 0.85
COC(=O)c1c(NC(=O)CC2Sc3ccccc3NC2=O)sc(C)c1C (configuration not stated)
  0.05 | 0.47
O=C(O)c1cccnc1Sc1ccc(Cl)cc1
  . | 0.045
CCOC(=O)c1nn(-c2ccccc2)c2nc(=O)c(C#N)c(-c3ccccc3)n12
  2.2 | 16
CCN(CC)c1ccc(C#N)cc1
  0.15 | -0.62
O=C(COC(=O)c1ccc2c(c1)OCCO2)NC1CCCC1
  -0.5 | .
CCNC(=O)C1CCCN(S(=O)(=O)N(C)c2ccc(F)cc2)C1 (configuration not stated)
  0.15 | 1.3

Profiles from above. Order of screens: AID504770 | CapD inh
Shown for Cc1cccc(OCc2ccc(C(=O)NCCCN3CCOCC3)cc2)c1 = -0.65 | -0.12
Shown for CCOC(=O)c1nn(-c2ccccc2)c2nc(=O)c(C#N)c(-c3ccccc3)n12 = 2.2 | 16
Shown for O=C(O)c1ccc(NC(CC(=O)c2ccc(Cl)cc2)c2ccccc2)cc1 (configuration not stated) = -0.25 | -0.11
Shown for CC1(C)Cc2ccccc2-c2nc(NCCCO)n(-c3ccccc3)c(=O)c21 = 2.5 | 41
Shown for N#CCCN(CC1CCCO1)S(=O)(=O)c1cccc2nsnc12 (configuration not stated) = -0.45 | -0.085

The listing continues:
Every second line gives: AID504770 | CapD inh
Cc1ccc(COc2cccc3c2CCN(C)C3=O)cc1
  -0.7 | .
C(=NC1=NN(c2ccccc2)CC1)c1ccccc1
  -0.15 | -0.17
O=C(C1CCN(c2nnc(N3CCCC3=O)s2)CC1)N1CCN(C2CCCCC2)CC1
  1 | 0.96
COc1ccc(NC(=S)Nc2ccc(N3CCOCC3)c3nonc23)cc1OC
  -1.1 | -0.92
CC(=O)NC(=O)CSc1nnc(NC(=O)CSc2nc3ccccc3s2)s1
  -0.6 | 0.01
CCc1ccccc1N(C)S(=O)(=O)c1ccc2[nH]cc(C(=O)NCCCN3CCOCC3)c(=O)c2c1
  . | 11
O=C(NCCc1ccccn1)OCCc1c[nH]c2ccccc12
  . | -0.69
COc1ccccc1N(CC(=O)Nc1ccc(Oc2ccccc2)cc1)S(C)(=O)=O
  -0.05 | -0.64
O=C(NC(=O)c1c(Cl)cccc1Cl)Nc1ccccc1Oc1ccc(Cl)cc1Cl
  . | 0.46
C=CCC(C#N)(CC=C)c1ccc(OC)c(OC)c1
  -0.15 | -0.33
Cc1c(C(N)=O)sc2nc(-c3ccccc3)cn12
  -1.4 | 0.12
COc1ccc(-c2csc(/C(C#N)=C(\O)CN3C(=O)c4ccccc4C3=O)n2)cc1OC
  -0.2 | .
O=C1c2ccccc2C(=O)N1/N=C/c1ccc2c(c1)OCO2
  -0.85 | 0.35
COc1ccc(N2C(=O)CC(N3CCN(c4ccc(S(C)(=O)=O)cc4)CC3)C2=O)cc1 (configuration not stated)
  -0.4 | -1.3
Cc1sc2ncnc(SC(C)C(=O)NC3(C#N)CCCCC3)c2c1C (configuration not stated)
  -0.4 | .
Cc1ccc(/C=N/O)o1
  -0.65 | .
O=c1c(/C=N/O)coc2ccc(Cl)cc12
  -3* | -0.79
CCOC(=O)CC(=O)CSc1cc(C)c(Cl)cc1Cl
  . | 0.3
COc1ccccc1-c1cc(C(F)(F)F)nc(S(=O)(=O)CCCC(=O)N2CCOCC2)n1
  -0.3 | 4.2
